Screens as filed in PubChem.
Rango dissoc inh – qHTS Assay for Inhibitors of RanGTP induced Rango (Ran-regulated importin-beta cargo) - Importin beta complex dissociation; Snurportin-1 (Homo sapiens) + GTP-binding nuclear protein Ran (Homo sapiens) + Importin …; Biochemical FRET Rango-importin beta, RanGTP-induced dissociation; Potency, µM (top dose mostly 46.1 µM), without a hit: at the top dose activity change, negative = inhibition; actives 0.071% (n = 340,000); active means falling FRET ratio curve, often poorly fitted, with flat reads before Ran was added; inconclusive means other falling curves, or compound fluorescence or quenching; inactive means flat or rising ratio curve;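 further: potency means the concentration at half of the fitted maximal effect; % of control where 0% means no effect; nearly all actives have a fitted effect of over 45% in size; -100% = wells without RanGTP and RCC1; the record marks most hits as doubtful in a second field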
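Quantitative HTS using a FRET biosensor: 0.1 uM Rango, 0.25 uM importin beta, 0.6 uM Ran, 2 mM GTP, 0.2 uM RCC1 final, PBS with DTT, Tween-20 and BSA. Post-read taken 45 min after Ran addition.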
GLA inh pH 4.5 – qHTS Assay for Inhibitors of Human alpha-Galactosidase at pH 4.5; purified enzyme, 4-MU-alpha-Gal fluorescence, pH 4.5; activity change, negative = inhibition, % at 105 µM; 230,000 tested, under 10 active; inconclusive = small, poorly fitted or top-dose-only inhibition, or a rising curve; inactive = flat fitted curve, though single readings scatter; no compound was filed as active;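 further: 0% = full activity with enzyme and -100% = basal without enzyme; dose as in the result columns while the protocol names 77 µM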
Target sequence (P06280 whole entry, looked up): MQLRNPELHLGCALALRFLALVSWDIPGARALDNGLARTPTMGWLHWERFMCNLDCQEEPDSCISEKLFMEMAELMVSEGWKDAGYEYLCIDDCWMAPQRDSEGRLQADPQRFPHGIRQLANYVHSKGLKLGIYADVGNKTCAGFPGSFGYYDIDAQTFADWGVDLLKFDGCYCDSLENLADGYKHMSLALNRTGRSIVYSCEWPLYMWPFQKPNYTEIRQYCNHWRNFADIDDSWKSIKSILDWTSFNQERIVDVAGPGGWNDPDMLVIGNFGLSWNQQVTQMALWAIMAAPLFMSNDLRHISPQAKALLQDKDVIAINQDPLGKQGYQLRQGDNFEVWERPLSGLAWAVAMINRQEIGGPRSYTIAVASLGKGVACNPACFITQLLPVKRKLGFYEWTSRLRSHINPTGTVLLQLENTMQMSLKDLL
Rango-impB inh – qHTS Assay for Inhibitors of Rango (Ran-regulated importin-beta cargo) - Importin beta complex formation. Importin subunit beta-1 (Homo sapiens), Q14974. Potency, µM (titrated, usually from 92.2 µM), for inactives: top-dose inhibition of complex formation. actives 0.031% (n = 340,000). Rango CFP/YFP FRET sensor + importin beta, 45 min; active = rising FRET ratio curve, often small or poorly fitted; inconclusive = mostly compound fluorescence or quenching in the first reads; inactive = flat curves in all reads;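 further: potency means the concentration at half of the fitted maximal effect; 0% = DMSO wells and 100% = buffer wells lacking importin beta; nearly all actives have a fitted effect of over 15% in size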
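Inhibition scored from the CFP 486 nm/YFP 530 nm FRET ratio 45 min after adding 0.125 microM importin beta to 50 nM Rango biosensor preincubated 5 min with compound (room temperature, PBS with DTT, Tween-20, BSA). No-importin wells as positive control.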
miR-21 FLuc – qHTS Assay for Modulators of miRNAs and/orActivators of miR-21. HeLa miR-21 FLuc reporter, luciferase, 48 h. Potency, µM (highest dose often 38.3 µM), without a hit: at the highest dose reporter change, positive = more light. 340,000 tested, under 10 active; active = well fitted rising curve with a large enough effect; inconclusive = small, poorly fitted or top-dose-only effect; inactive = no such curve, though single readings can be large or run the other way;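 further: % of control where 0% means no effect; miR-21 action dims this reporter so a rising signal means less miR-21 action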
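Compounds were titrated across several concentrations (up to approximately 40 uM) and incubated 48 hours with HeLa miR-21-FLuc reporter cells (miR-21 target sequence downstream of FLuc, endogenous miR-21). Readout was firefly luciferase luminescence after lytic detection reagent.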
Numbers without * were called inactive; ? = inconclusive; . = no result given; & = joins results of further samples. A portion of the library; rates above refer to the full screens.

Structure	Rango-impB inh	miR-21 FLuc	Rango dissoc inh	GLA inh pH 4.5
O=C(COC(=O)c1cccc(O)c1)NC(=O)Cc1ccccc1	-0.1%	-4%	-2%	.
CCN(CC)c1ccc(NC(=O)CCS(=O)(=O)c2cccc3nsnc23)c(C)c1	-5.5%	3%&4%	11%	-1
CC(=O)c1sc(N/N=C/c2cccc(O)c2)nc1C	?	-52%	?	-15
CCCN1CCC(=O)N([C@H](CSc2ccc(OC)cc2)c2ccccc2)CC1	-2.3%	-38%	-15%	2
CC(CNC(=O)c1cccc(Br)c1)n1cncn1 (stereo unspecified)	-2.3%	0%	0%	.
O=C(CCC(=O)N1CCCC(Nc2ccccc2)C1)c1ccc(F)cc1 (stereo unspecified)	-2.7%	-5%	-5%	.
CC(=O)N1CCOc2ccc(S(=O)(=O)N3CCC(C(=O)Nc4cc(C)cc(C)c4)CC3)cc21	2.7%	3%	17%	.
CCOC(=O)N1CCN(C(=O)C(=O)c2cn(CC(=O)N3CCCCCC3)c3ccccc23)CC1	-2.8%	1%	-4%	.
CCN1C(=O)[C@@H]2[C@@H](c3ccc(-c4ccc5c(c4)OCO5)c(OC)c3)N3CCCC[C@@]3(C(=O)OC)[C@@H]2C1=O	1.1%	.	-8%	.
CC(C)(C)c1ccc(OCC(=O)Nc2ccncc2)c(Br)c1	-0.6%	13%	-22%	.
O=C(CNC(=O)c1ccccc1Br)N/N=C\c1cc([N+](=O)[O-])cc(Br)c1O	-2.2%	-1%	-20%	.
CC1(C)CCCC2=C1CC1C(=O)N(Cc3cccnc3)C(=O)C1C2 (stereo unspecified)	2.8%	-2%	-6%	0
CCOC(=O)C(NCc1ccc2c(c1)OCO2)(NC(=O)c1ccccc1)C(F)(F)F (stereo unspecified)	-0.5%	0%	-15%	-7
COc1ccc2c(=O)cc(-c3ccncc3)oc2c1OC	1.0%	.	0%	.
CN(C1CCCCC1)S(=O)(=O)c1cccc(C(=O)Nc2ccccn2)c1	3.6%	.	5%	.
O=C(Cn1cccc1)NC1CCCCCC1	-1.5%	-5%	-27%	3
Cc1cccc(C(=O)N(C)c2nnc(-c3ccncc3)s2)c1	-0.8%	.	-6%	.
COc1cccc(/C=N/Nc2ncnc3scc(-c4ccccc4)c23)c1O	?	14%	?	-8
Cc1cccc(NC(=O)c2ccccc2NC(=O)c2ccccc2)n1	-1.3%	19%	15%	.
CCc1nnc(SCC(=O)Nc2ccccc2Cl)nc1CC	-0.5%	-3%&-2%	-4%	0

Full records from above. Order of screens: Rango-impB inh	miR-21 FLuc	Rango dissoc inh	GLA inh pH 4.5
Results for CCOC(=O)N1CCN(C(=O)C(=O)c2cn(CC(=O)N3CCCCCC3)c3ccccc23)CC1 = -2.8%	1%	-4%	.
Results for CC(CNC(=O)c1cccc(Br)c1)n1cncn1 (stereo unspecified) = -2.3%	0%	0%	.
Results for O=C(COC(=O)c1cccc(O)c1)NC(=O)Cc1ccccc1 = -0.1%	-4%	-2%	.

Other compounds
Structure	Rango-impB inh	miR-21 FLuc	Rango dissoc inh	GLA inh pH 4.5
COc1ccc(N/C=C2\C(=O)c3c(sc(C)c3C)N(C)S2(=O)=O)cc1	?	0%	?	9
c1ccc(CNc2nc3ccccc3n3cnnc23)nc1	1.1%	-30%	3%	2
COc1ccc(NC(=O)c2cn(CCC#N)nc2-c2cc3ccccc3o2)cc1	0.8%	-12%	-1%	-14
O=C1CCc2cc(S(=O)(=O)N3CCCC3C(=O)N3CCN(c4ccccc4F)CC3)ccc2N1 (stereo unspecified)	7.3%	-6%	-10%	1
Cc1ccc(-c2csc(N(CCO)CCCn3c(C(F)(F)F)nc4ccccc43)n2)cc1	-1.1%	15%	-15%	.
O=C(NNC(=O)c1cccc2ccccc12)c1ccc(Br)cc1	-1.2%	.	11%	.
Cc1ccc(S[C@@H](CCN2CC[C@H](C(C)(C)C)CCC2=O)c2ccccc2)cc1	-1.2%	12%	0%	.
Cc1cccc(C)c1N1CCN(S(=O)(=O)N2CCCCC2)CC1	1.2%	-6%	-17%	8
O=C(NCc1ccc(Cl)cc1)C(=O)N/N=C/c1ccc(Br)cc1	-2.5%	-1%	4%	-4
CCOC(=O)c1ccc(NC(=S)NCc2cccnc2)cc1	-3.0%	8%	0%	-30
O=C(CCl)N1CCN(C(=O)C2COc3ccccc3O2)CC1 (stereo unspecified)	1.5%	.	-14%	.
c1ccc(Cc2noc(CN3CCN(C4CCc5ccccc5C4)CC3)n2)cc1 (stereo unspecified)	?	0%	11%	2
C=CCNc1nc2ccccc2nc1NS(=O)(=O)c1cccc(C)c1	5.5%	2%	-2%	.
COc1cc(NC(=O)CN2CCN(S(=O)(=O)/C=C/c3ccccc3)CC2)cc(OC)c1OC	-1.4%	.	-11%	.
CC(C)N(Cc1ccccc1)C(=O)CN1C(=O)c2ccccc2C1=O	-0.5%	-1%	-8%	.
CCN(CC)S(=O)(=O)c1ccc(Cl)c(C(=O)NCc2ccccc2Cl)c1	-0.2%	-8%	-1%	1
C#CC(CC)(CC)NC(=O)NC1CCCCC1	-1.4%	4%	-5%	-1
Cc1ccc(-n2cnc3sc(C)c(C)c3c2=O)cc1	-3.0%	-18%	-1%	5
OCc1cn(-c2ccccc2)nc1-c1ccc2c(c1)OCCO2	-1.8%	7%	-6%	-1
COc1ccc(C(=O)N/N=C(\C)CC(=O)Nc2ccc(Cl)cn2)cc1	-0.3%	-37%	16%	-4
O=C(CN1CCCC1)N1CCCC(c2ccc(F)cc2)c2ccc(F)cc21 (stereo unspecified)	-0.5%	-11%	-6%	1
Cc1cccc2c1cnn2C(=O)Nc1ccccc1Br	-3.5%	-1%	19%	.
O=S(=O)(Nc1ccc(C(F)(F)F)cc1)c1cccs1	4.3%	-16%	-24%	.
O=C(NCCNc1ccnc2cc(Cl)ccc12)c1ccccc1F	-2.9%	16%	-8%	.
CCC(C)NC(=O)C1CCCN(C(=O)Nc2ccc(F)cc2)C1 (stereo unspecified)	-3.2%	0%	7%	8
N#Cc1ccccc1S(=O)(=O)N1CCN(CC(=O)Nc2ccnn2C2CCCC2)CC1	0.5%	.	9%	.
COc1ccc(S(=O)(=O)Nc2ccccc2C(N)=O)cc1OC	-0.3%	0%	-18%	-4
COc1ccc(C(=O)N2CCCC(CCC(=O)N3CCN(c4ccccn4)CC3)C2)cc1 (stereo unspecified)	-1.7%	9%	9%	.
COc1ccc(/C=C/C(=O)N/C(=C\c2ccco2)C(=O)NCCc2nc3ccccc3[nH]2)cc1	-1.4%	-1%	2%	-3
CC(=O)NN1C(=O)c2ccccc2NC1c1ccccc1F (stereo unspecified)	0.5%	-2%	-20%	.
CCC(=O)Nc1ccc(C(=O)N/N=C/c2c(C)[nH]c3ccccc23)cc1	4.0%	1%	-4%	6
CCc1nc(C)cn1S(=O)(=O)c1cc(C)c(OC)cc1C	-0.2%	-2%	?	-1
CCc1ccc(OCCCC(=O)Nc2cccc(C(=O)O)c2)cc1	-1.6%	0%	-4%	-5
C/C(=N\NC(=O)C1COc2ccccc2O1)c1ccc(N2CCOCC2)cc1 (stereo unspecified)	3.5%	17%	8%	6
C(=N\n1cnnc1)/c1cccc2ccccc12	-1.2%	-6%	-2%	11
O=C(CS(=O)(=O)c1ccc(Cl)c(Cl)c1)Nc1ccccc1Cl	-0.5%	-10%	-6%	-13
O=C(CN1C(=O)COc2ccc(S(=O)(=O)N3CCCC3)cc21)NC1CC1	-3.6%	4%	-18%	1
Cc1ccc(NC(=O)CC2COc3ccccc3O2)cc1 (stereo unspecified)	-0.9%	-43%	1%	5
CS(=O)(=O)Nc1ccc(C(=O)Nc2ccccc2Sc2ccccc2)cc1	0.7%	-19%	13%	-8
Cc1ccc(OCC(=O)Nc2ccc([N+](=O)[O-])cn2)cc1C	1.2%	.	-8%	.
Cc1c(C(=O)N2CCC[C@H]2C(N)=O)oc2c(F)cccc12	-1.5%	-17%	-4%	.
COc1ccc(C(=O)OCC(=O)c2ccc(F)cc2)cc1OC	-1.9%	.	-5%	.
CC(C(=O)NCC1CCCCC1)N(C)Cc1ccc(Br)cc1 (stereo unspecified)	2.2%	0%	15%	.
CCN(CC)c1ccc(N=Cc2ccc(N(CC)CC)cc2O)cc1	?	25%	?	-7
CCOc1ccc(CN2CCN(Cc3ccc(C)o3)CC2CCO)cc1 (stereo unspecified)	1.7%	-6%	1%	6
c1ccc2sc(NC3=NCN(Cc4ccc5c(c4)OCO5)CN3)nc2c1	7.1%	-6%	12%	-4
COc1cc(SC)ccc1C(=O)NCC1CCCCC1	0.3%	-67%	-9%	.
CCOc1ccc(S(=O)(=O)NCc2ccc(OC)cc2)c2cccnc12	-4.5%	-21%	-6%	0
CCc1ccc2c(c1)cc(CN(C(=S)Nc1ccc(Cl)cc1)C1CC1)c1nnnn12	-2.0%	-7%	-1%	-4
CSc1nc2sc3c(c2c2nncn12)CCC3	1.1%	-24%	1%	-3
CCS(=O)(=O)c1ccc2c(c1)N(S(=O)(=O)c1ccc(Cl)cc1)CC(C(=O)O)O2 (stereo unspecified)	0.3%	-3%	1%	5
CCCN1C(=O)C(=O)c2cc(C)ccc21	-1.4%	.	-9%	.
NC(=O)Cc1ccc(Nc2nnc(-c3ccccc3)c3ccccc23)cc1	-2.2%	-17%	4%	-3
S=C1NCCN1CC1CCN(CCCC2CCCC2)CC1	-0.6%	.	-6%	.
O=C(O)c1cc(-n2nnnc2SCc2ccccc2F)ccc1Cl	-5.5%	1%	-2%	2
CCN(CC(=O)NC1CCS(=O)(=O)C1)c1nc(-c2cccnc2)nc2ccccc12 (stereo unspecified)	-0.8%	-5%	-13%	15
C1=C2C[N+]3(CCCC3)CC2Cc2ccc3ccccc3c21 (stereo unspecified)	-1.2%	4%	2%	4
O=C(O/N=C1\CCS(=O)(=O)c2sccc21)c1c(F)cccc1F	?	2%	4%	0
O=C(Cn1c(=O)sc2ccccc21)Nc1ccc2c(c1)OCCO2	-0.6%	-5%	-7%	-3
CC(C)(Oc1ccc(Cl)cc1)C(=O)NCC(c1ccco1)N1CCCCC1 (stereo unspecified)	4.1%	.	20%	.

New compounds follow
Structure	Rango-impB inh	miR-21 FLuc	Rango dissoc inh	GLA inh pH 4.5
CC(C)NC(=O)c1ccccc1NC(=O)Cc1ccc(Cl)cc1	-3.3%	-17%	14%	5
N#Cc1c(N)nc2c(c1-c1ccc3c(c1)OCO3)CCCCCC2	-1.6%	-16%	-10%	-8
O=C(c1csc2ccccc12)n1cccn1	-4.7%	-3%	-11%	3
C[C@@H](CN=[N+]=[N-])CN1CC[C@H](O)CCC1=O	-0.4%	0%	26%	.
N#Cc1ccccc1NC(=O)CSc1nnc(-c2ccccc2O)n1-c1ccccc1	-0.7%	18%	0%	-4
CCn1nc(C)c(C2C(C#N)=C(N)OC3=C2C(=O)CCC3)c1C (stereo unspecified)	-2.4%	-1%	1%	8
CC1CN(CCCCOc2cccc(Oc3ccccc3)c2)CC(C)O1 (stereo unspecified)	-1.8%	4%	-9%	-7

In a second layout: 2 of the compounds above.
Fields – Rango-impB inh	miR-21 FLuc	Rango dissoc inh	GLA inh pH 4.5
C[C@@H](CN=[N+]=[N-])CN1CC[C@H](O)CCC1=O
    -0.4%	0%	26%	.
N#Cc1ccccc1NC(=O)CSc1nnc(-c2ccccc2O)n1-c1ccccc1
    -0.7%	18%	0%	-4
